# High-throughput results deposited in PubChem by Sanford-Burnham Center for Chemical Genomics.
# HNF4A DNA FP – change in binding of human HNF4 alpha to DNA; AID 1224865; activity change, % at 10 µM; P41235; HNF4a-FITC DNA binding, fluorescence polarization, 1 h; 360,000 compounds, 0.3% hits; in the data active = activity change above about 30%, passing the limit was not always enough;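 note: controls were the assay level and a saturating level of protein; the project sought stronger binding though the title names inhibitors; some compounds called inactive have numbers as strong as hits; positive values seem to mean higher polarization but the record does not say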
# Target sequence (P41235 whole entry, looked up): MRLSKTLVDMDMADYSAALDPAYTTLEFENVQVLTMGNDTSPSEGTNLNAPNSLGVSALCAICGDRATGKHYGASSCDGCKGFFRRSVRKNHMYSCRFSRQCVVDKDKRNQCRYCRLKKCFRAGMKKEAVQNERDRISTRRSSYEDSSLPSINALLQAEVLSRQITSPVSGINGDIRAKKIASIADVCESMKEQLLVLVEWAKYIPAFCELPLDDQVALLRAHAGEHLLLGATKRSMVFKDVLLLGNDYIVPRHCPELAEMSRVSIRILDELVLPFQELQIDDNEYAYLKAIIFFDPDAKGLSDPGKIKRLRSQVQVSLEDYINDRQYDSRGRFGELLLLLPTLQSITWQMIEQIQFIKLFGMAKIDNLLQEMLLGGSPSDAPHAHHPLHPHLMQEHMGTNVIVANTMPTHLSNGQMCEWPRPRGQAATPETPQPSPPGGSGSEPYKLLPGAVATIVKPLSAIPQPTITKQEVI
# * marks the source's active call; other numbers are inactive results. Some of the compounds tested; rates above refer to the full screens.
SMILES,HNF4A DNA FP
COc1ccc(-c2csc(C(NC(C)=O)c3ccccc3)n2)cc1 (stereo not given),0.3
O=C(NCc1ccccc1)OC1CC2CC1[C@H]1CCCCN1C2=O (stereo not given in full),-4.2
Cc1ccc(S(=O)(=O)N2CCC(=O)N([C@H](COCc3cccc(C(F)(F)F)c3)C(C)C)CC2)cc1,4.1
Cc1ccc(S(=O)(=O)N2[C@@H](CO)CO[C@H]2CC(=O)c2cccs2)cc1,-1.2
Cc1cn([C@H]2C[C@H](O)[C@@H](/C=C/C(=O)NCc3ccccc3)O2)c(=O)[nH]c1=O,3.4
CC(C)CNc1ncnc2c1ncn2[C@H]1CN(Cc2ccc(Cl)cc2)C[C@@H](CO)O1,-2.2
Cc1cc(=O)oc2c3c(cc(OCC(=O)NCC(O)c4ccccc4)c12)OC(C)(C)CC3 (stereo not given),-2.4
NC(CCc1ccccc1)c1csc(NC(=O)NCC2CCCCC2)n1 (stereo not given),3.1
CCOC(=O)C1=C[C@@H](C(C)(C)C)N(S(=O)(=O)c2ccc(C)cc2)[C@H]1c1ccc(Cl)c(Cl)c1,-1.5
CCc1nc2ccc(C(=O)N(C)CCN(C)C)cn2c1N(C)CCC(C)C,-1.4
Cc1cnc(C)c(Nc2nc(C(N)Cc3ccc(F)cc3)cs2)n1 (stereo not given),1.6
CC1(Cc2cc(Cl)ccc2C(F)(F)F)C(=O)Nc2cc(F)ccc21 (stereo not given),1.9
COc1cccc(C(C)(O)c2nc(-c3cccc(C(=O)O)c3)cs2)c1 (stereo not given),-2.8
COc1ccccc1-n1cc(CN2CCc3onc(-c4ccc(Br)cc4)c3C2=O)nn1,5.9
O=S(=O)(Nc1ccc(-c2cn3c(n2)SCC3)cc1)c1cc(F)ccc1F,3.3
O=C(OCc1ccccc1)N1Cc2ccnnc2CC1c1ccccc1Br (stereo not given),6.0
COCCCNC(=O)c1cccc2c(-c3ccnn3C)coc12,-5.1
O=C1Nc2ccccc2-n2nnnc2C1N1CCN(c2ccccn2)CC1 (stereo not given),-5.3
CCCCNC(=O)c1nc(C2CCN(S(=O)(=O)c3ccccc3)CC2)oc1-c1cccc(C(F)(F)F)c1,2.6
Cc1ccccc1C(=O)NCCN1CCC(n2c(=O)[nH]c3ccccc32)CC1,-1.7
O=C(Nc1nnc([C@H]2C[C@H](O)[C@@H](CO)O2)s1)Nc1ccccc1C(F)(F)F,-0.9
CCCCCCCCN1C(=O)[C@H](CC(=O)NCCc2ccccc2OC)C[C@@]2(C(=O)OC)CCCCC=C12,3.1
Cc1ccc(S(=O)(=O)N(C)C[C@@H]2OCc3cn(nn3)CCCC(=O)N([C@H](C)CO)C[C@H]2C)cc1,3.9
COc1ccc(-c2nc3ccc(Br)cn3c2Cc2ccccc2C(F)(F)F)cc1OC,8.1
O=C1N(Cc2ccccc2)c2ccccc2OC1(F)F,0.8
COc1ccc(C(c2nnnn2Cc2ccccc2)N2CCN(C/C=C/c3ccccc3)CC2)cc1 (stereo not given),1.1
Cn1c(=O)c2cc(NC(=O)NCCc3cccs3)ccc2n1-c1ccc(C(C)(C)C)cc1,-1.6
Cc1ccc2cc(CNC[C@H]3O[C@@H](n4cc(C)c(=O)[nH]c4=O)C[C@@H]3O)c(N3CCOCC3)nc2c1,2.3
COc1c(C)cc(C(O)c2ncc(-c3ccc(C(F)(F)F)cc3)[nH]2)cc1C (stereo not given),-0.8
COCCNc1nc2cc(-c3ccccc3)sc2c(=O)n1C,4.0
CCOc1ccc(-c2cc(C(=O)Nc3ccc(F)cc3)[nH]n2)c(C)c1,1.2
CCNC(=O)C1CCCN(C(=O)c2ccc(C#N)cc2)CC1 (stereo not given),1.4
CC(C)(C)CC(=O)Nc1nc(C(N)Cc2ccc(C(F)(F)F)cc2)cs1 (stereo not given),-2.6
CCc1nc2ccc(C(=O)N(C)Cc3ccco3)cn2c1N(C)C(=O)Cc1ccccc1,-0.4
Cc1nc2c(OCC(=O)c3ccc(F)cc3)cccn2c1N(C)Cc1cccs1,1.5
CC(=O)NCCNc1nc2cc(-c3ccsc3)sc2c(=O)n1C,6.1
O=C1C(CCc2ccccc2)ON=C(c2cnccn2)N1Cc1ccc(F)cc1 (stereo not given),1.2
O=C1Nc2ccccc2N(C(=O)c2ccc3ccccc3c2)C1c1nc2ccccc2[nH]1 (stereo not given),-3.4
O=S1(=O)CC(N2CCC(c3ccccc3)CC2)CN1Cc1ccc(F)cc1 (stereo not given),-1.6
CCc1nc2ccc(C(=O)NCCCn3ccnc3)cn2c1N(C)CCC(C)C,-1.9
CCCCCCCCN1CC(Cc2cc3ccccc3c3ccccc23)N(c2ccccc2)c2ccccc2C1=O (stereo not given),-0.7
CCCCN1CC(N2CCCCC2)CS1(=O)=O (stereo not given),-0.8
CCCCN1C(=O)C(CC(=O)NC2CCCC2)CC(C(=O)N2CCOCC2)=C1C (stereo not given),-0.7
COc1ccc(CC(=O)Cc2ccc(OC)c(OC)c2)cc1OC,2.3
Cn1cc(-c2csc(C(C)(O)c3cccnc3)n2)cn1 (stereo not given),-7.7
O=[N+]([O-])c1ccc2c(c1)CO[C@@]21O[C@H](CCO)C[C@H](O)[C@H]1O,2.0
CCC(=O)N1CCC1(C)C(=O)Nc1ccc(OC)c(OC)c1 (stereo not given),-3.6
C(=C\c1ccccc1)/CN1CCN(C(c2ccnc3ccccc23)c2nnnn2C2CCCCC2)CC1 (stereo not given),-5.2
COc1ccccc1-c1cc2c(c3c1ccn3C)C1CCC2C1 (stereo not given),1.6
O=C(C[n+]1cccc(/C=N/O)c1)NC(=O)Nc1ccccc1,-0.4
CCNC(=O)C1CCCN(C(=O)c2ccc3c(c2)OCO3)CC1 (stereo not given),3.0
C[C@@H]1CCCCO[C@@H](CN(C)S(=O)(=O)c2ccc(Cl)cc2)[C@@H](C)CN([C@H](C)CO)C(=O)c2cc(N(C)C)ccc2O1,3.3
CN1CCN(c2ccc3c(c2)OC[C@@H](Cc2ccccc2)NS3(=O)=O)CC1,1.7
O=C(COC(=O)c1cccc(S(=O)(=O)N2CCOCC2)c1)NC1CCCCC1,1.2
CCc1nc2ccc(C(=O)NCCN3CCNC3=O)cn2c1N(CC)CCOC,3.7
Oc1ccc(C[C@H]2CN([C@@H](Cc3ccc(O)cc3)CN3CCC[C@@H]3CN3C(=S)NC[C@@H]3Cc3ccccc3)C(=S)N2CCc2ccccc2)cc1,-4.3
COc1cccc(CNC(=O)[C@@H]2CCCN2)c1,-1.1
CC(=O)NC(C)(c1ccccc1)c1nc(-c2cccc(F)c2)cs1 (stereo not given),9.2
COc1ccc(OC)c(NC(=O)Nc2nc(C(N)CCc3ccccc3)cs2)c1 (stereo not given),-1.6
CC(=O)Nc1ccc(NC(=O)C2Cc3c(-c4ccco4)ccnc3O2)cc1 (stereo not given),3.1
# More compounds:
SMILES,HNF4A DNA FP
CCNC(=O)C1(C)CCCN(C(=O)c2sc(-c3ccccc3)nc2C)C1 (stereo not given),-0.3
OC[C@@H]1CN(Cc2cccs2)C[C@H](n2cnc3c(Nc4ccccc4)ncnc32)O1,0.1
Cc1cccc(C)c1NC(=O)C(c1ccnc2ccccc12)n1c(=O)c(-c2ccccc2)nc2ccccc21 (stereo not given),0.6
COc1ccc(-c2oc3c(c2C(=O)OCCCO)C(OCCCCCO)CCC3)cc1 (stereo not given),2.8
CCCS(=O)(=O)NC(=O)C1(C)CCCN(C(=O)c2cc(F)cc(F)c2)C1 (stereo not given),-0.9
OC(c1ccc(Cl)c(F)c1)c1ncc(-c2ccc(Cl)cc2)[nH]1 (stereo not given),-0.8
c1ccc2c(-c3ccc4nncn4c3)cncc2c1,-0.8
COC(=O)c1cc(=O)nc(NNC(C)=O)s1,0.8
CC(C)c1ccc(CN2CCC2(C)C(=O)Nc2cnc3ccccc3c2)cc1 (stereo not given),-0.1
CCc1nc2ccc(C(=O)NCCCN3CCCC3=O)cn2c1N(CC)CCN(C)C,-1.5
CC(=O)Nc1cc(-c2ccc(C(=O)N3CCOCC3)cc2)cn2c(-c3cccc(C(C)=O)c3)cnc12,0.7
CC(C)NC(=O)C1C(c2ccc(C(F)(F)F)cc2)=Nc2ccccc2N1C(=O)c1ccccc1 (stereo not given),-5.1
Cc1ccc([C@H]2C[C@@H](n3cc(-c4ccc(F)cc4)nn3)[C@H](O)CN2C(=O)c2cccs2)cc1,-5.8
CC(=O)Nc1c([N+](=O)[O-])cc2c3c(cccc13)CC2,-1.0
COC(=O)c1cnc(Nc2nc(C(N)Cc3ccccc3)cs2)nc1C(F)(F)F (stereo not given),3.3
COC(=O)[C@@]12C[C@@H](CC(=O)NCC34CC5CC(CC(C5)C3)C4)C(=O)N(Cc3ccc4c(c3)OCO4)C1=CCC(C)(C)C2,-3.5
COc1cc2cc(OC(C)=O)c3cc4c(cc3c2c(OC)c1OC)OCO4,9.0
CCC(c1nc2ccccc2[nH]1)n1c(-c2ccc3ccccc3c2)nc2ccccc21 (stereo not given),1.3
CC1=C(C(=O)N2CCCCCC2)CC(CC(=O)NCCCCc2ccccc2)C(=O)N1Cc1ccccc1 (stereo not given),-1.4
O=C(Nc1ccccc1)c1cc(C2CCCCN2C(=O)OCCF)on1 (stereo not given),1.8

# The list goes on, starting with the last 7 of the part before.
SMILES,HNF4A DNA FP
CC(=O)Nc1c([N+](=O)[O-])cc2c3c(cccc13)CC2,-1.0
COC(=O)c1cnc(Nc2nc(C(N)Cc3ccccc3)cs2)nc1C(F)(F)F (stereo not given),3.3
COC(=O)[C@@]12C[C@@H](CC(=O)NCC34CC5CC(CC(C5)C3)C4)C(=O)N(Cc3ccc4c(c3)OCO4)C1=CCC(C)(C)C2,-3.5
COc1cc2cc(OC(C)=O)c3cc4c(cc3c2c(OC)c1OC)OCO4,9.0
CCC(c1nc2ccccc2[nH]1)n1c(-c2ccc3ccccc3c2)nc2ccccc21 (stereo not given),1.3
CC1=C(C(=O)N2CCCCCC2)CC(CC(=O)NCCCCc2ccccc2)C(=O)N1Cc1ccccc1 (stereo not given),-1.4
O=C(Nc1ccccc1)c1cc(C2CCCCN2C(=O)OCCF)on1 (stereo not given),1.8
COc1ccc(Nc2c(-c3ccc(F)cc3)nc3nc(C)cc(C)n23)cc1,-2.9
S=c1[nH]nc2ccc3ccccc3n12,4.7
O=C(Nc1ccc2c(c1)OCCO2)C(c1ccc(C(F)(F)F)cc1)n1c(=O)c(-c2cc3ccccc3[nH]2)nc2ccccc21 (stereo not given),-4.5
CCC1OC(C)Cc2[nH][nH]c(=O)c21 (stereo not given),-1.3
O=C(Nc1cc(C(F)(F)F)cc(C(F)(F)F)c1)[C@H]1O[C@@H](n2ccc(=O)[nH]c2=O)[C@H](O)[C@@H]1O,4.8
COCOCCn1cc(CN2CCS(=O)(=O)N(Cc3ccc(-c4ccc(Cl)cc4)cc3)C(C(C)C)C2=O)nn1 (stereo not given),-2.8
O=S1(=O)CC(N2CCC(Cc3ccccc3)CC2)CN1C1CCCC1 (stereo not given),0.0
Nc1c(-c2ccc(F)c(F)c2)nc2ncccn12,-16
CCCNC(=O)C1(C)CCCN(Cc2ccc(-c3ccccc3)cc2)C1 (stereo not given),0.5
CC(C)(C)CNC(=O)C1(C)CCN1C(=O)Cc1ccc(C(C)(C)C)cc1 (stereo not given),-4.7
COCCCn1c(=O)/c(=C/c2ccccc2OC(C)C)s/c1=C(\C#N)C(=O)Nc1ccc(C(=O)O)cc1,21
CC(O)(c1cccc(F)c1)c1nc(-c2csc3ccccc23)cs1 (stereo not given),-1.5
O=C(O)c1cccc(-c2csc(C(O)c3ccccc3)n2)c1 (stereo not given),5.0
COc1ccc(NC(=O)C(c2ccc(OC)cc2)n2c(=O)c(-c3ccco3)nc3ccccc32)cc1 (stereo not given),17
CC(C)CNC(=O)C1(C)CCCN1C(=O)Cc1cccc2ccccc12 (stereo not given),-0.1
CCNC(=O)C1CCCN(C(=O)c2ccccc2OC(F)(F)F)CC1 (stereo not given),0.2
Cc1ccc(CNc2nc3cc(-c4ccccc4C)sc3c(=O)n2C)c(C)c1,-2.3
COC(=O)c1ccc(CNC(=O)C(Cc2ccccc2)NC(=O)c2ccccc2)cc1 (stereo not given),2.6
CCc1nc2ccc(C(=O)NCCNC(C)=O)cn2c1N(CC)CCOC,-1.8
CCOC(=O)N(C)C[C@@H]1OCc2cnnn2CCCC(=O)N([C@H](C)CO)C[C@@H]1C,1.6

# Rewritten as labelled records: 3 of the compounds above.
COc1cccc(CNC(=O)[C@@H]2CCCN2)c1
  HNF4A DNA FP: -1.1

O=S(=O)(Nc1ccc(-c2cn3c(n2)SCC3)cc1)c1cc(F)ccc1F
  HNF4A DNA FP: 3.3

COc1ccc(NC(=O)C(c2ccc(OC)cc2)n2c(=O)c(-c3ccco3)nc3ccccc32)cc1 (stereo not given)
  HNF4A DNA FP: 17

# (more compounds)
SMILES,HNF4A DNA FP
Cc1ccc(Cc2c(-c3ccc(F)cc3)nc3ccc(Br)cn23)cc1,14
COc1ccc(S(=O)(=O)N2CCC3CC2c2c(-c4ccc(C(F)(F)F)cc4)cccc23)cc1 (stereo not given),9.6
COc1ccc(-c2coc3c(C(=O)Nc4cccc(C(C)=O)c4)cccc23)c(C)c1,0.1
CCCNC(=O)C1(C)CCCN(C(=O)Cc2ccc3ccccc3c2)C1 (stereo not given),1.4
O=C(N[C@H](CO)c1ccccc1)[C@H]1O[C@@H](n2ccc(=O)[nH]c2=O)[C@H](O)[C@@H]1O,2.2
CC(C)(C)c1ccc(SC2=C[C@@]3(O)CC[C@@H](O)[C@@](Sc4ccc(C(C)(C)C)cc4)(C2=O)[C@H]3O)cc1,-1.7
CCCS(=O)(=O)NC(=O)C1(C)CCN(C(=O)c2ccccc2OC(C)=O)C1 (stereo not given),1.7
COCCCN1C(=O)C(CC(=O)NCc2cccs2)CC(C(=O)N2CCCCCC2)=C1C (stereo not given),5.3
CC(=O)Nc1cc(-c2ccncc2)cn2c(-c3ccccc3)cnc12,3.7
